HSV replic up: HSV replication enhancement; HSV replication augmentation in cells, fold increase; maximum fold increase; hit rate 0.005% among 220,000;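 active = peak rise of 1.5-fold or more in the series; inconclusive = self-fluorescent or not available for retest; tested in PC3 cells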;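 note: first round at 10 µM; read as green reporter fluorescence; hits show the peak of a series up to 25 µM; 1 = signal of infected wells without compound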
GALR2 agonist: agonists of human galanin receptor 2 (GALR2); O43603; GALR2-expressing cells, agonist activation read-out; activation, %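 (tested at 5 µM)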; hit rate 0.48% among 140,000; AID 803;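 active = above mean plus 3 SD of all compounds, about 5% in these data, not always enough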;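 note: 0% = vehicle buffer wells and 100% = reference agonist at full effect; tested in CHO reporter cells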
PKD1 kinase inh: blocks activity of human protein kinase D1 | inhibition, %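 (about 10 µM by stock and volumes)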 | PKD1 kinase fluorescence polarization assay | hit rate 0.056% among 200,000;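 active = inhibition of 50% or more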;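 note: controls were vehicle for no effect and a reference inhibitor for full effect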
Target sequence (Q15139 whole entry, looked up): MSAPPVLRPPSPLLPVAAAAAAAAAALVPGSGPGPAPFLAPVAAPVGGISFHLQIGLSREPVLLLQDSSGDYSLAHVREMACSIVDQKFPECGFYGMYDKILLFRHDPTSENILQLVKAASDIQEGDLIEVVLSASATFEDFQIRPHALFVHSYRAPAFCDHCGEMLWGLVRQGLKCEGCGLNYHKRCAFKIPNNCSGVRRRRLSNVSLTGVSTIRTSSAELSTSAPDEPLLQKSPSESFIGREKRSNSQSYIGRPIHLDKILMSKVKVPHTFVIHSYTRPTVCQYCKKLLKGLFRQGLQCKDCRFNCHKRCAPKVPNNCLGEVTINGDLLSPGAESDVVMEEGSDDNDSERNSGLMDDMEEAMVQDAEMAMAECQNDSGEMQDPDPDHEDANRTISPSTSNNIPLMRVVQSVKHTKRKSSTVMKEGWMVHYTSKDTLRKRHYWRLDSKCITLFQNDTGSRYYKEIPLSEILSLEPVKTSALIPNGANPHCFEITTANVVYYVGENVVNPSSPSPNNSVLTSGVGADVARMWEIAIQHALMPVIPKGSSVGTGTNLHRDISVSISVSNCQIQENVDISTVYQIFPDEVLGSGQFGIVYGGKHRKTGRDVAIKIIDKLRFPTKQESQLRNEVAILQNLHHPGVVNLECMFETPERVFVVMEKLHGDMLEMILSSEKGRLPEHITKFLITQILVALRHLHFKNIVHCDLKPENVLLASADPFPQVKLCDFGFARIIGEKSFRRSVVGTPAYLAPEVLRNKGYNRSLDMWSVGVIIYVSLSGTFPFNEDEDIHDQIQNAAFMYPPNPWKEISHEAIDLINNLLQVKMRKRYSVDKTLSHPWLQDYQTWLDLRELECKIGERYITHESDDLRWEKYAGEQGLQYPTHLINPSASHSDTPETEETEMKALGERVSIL
RGS16-Gao HTS: RGS16-Galphao interaction regulator (human); O15492+P09471; bead-based flow cytometry RGS16-Galphao binding, fluorescence; actives lie on both sides; binding response (% of control), % at 10 µM; hit rate 0.38% among 220,000; AID 1441;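 active = below 25% or above 175%, edge rows of some plates excepted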;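 note: Galphao activated by GDP with aluminum fluoride before binding; 100% = wells without compound and 0% = beads without RGS; some results beyond the cut were filed as inactive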
Insulin prom inh: TRM-6 insulin promoter activity inhibition | inhibition, % at 2 µM | TRM-6 cells (human fetal islet line), insulin promoter-eGFP reporter, imaging; reporter expression induced with tamoxifen | AID 1273 | hit rate 0.9% among 130,000;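 active = inhibition above the mean plus 3 SD, with well images judged a real hit on visual review, cut at about 60% in these data, passing the limit was not always enough; inconclusive = inhibition over the cutoff but images rejected on review; inactive = inhibition not above the cutoff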
Insulin prom inh cell count: recorded beside Insulin prom inh, whose call it bears; normalized cell count, %; measured here: cell count, toxicity; reference of the scale not given here;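 cells exposed to compound for 48 h; stained nuclei by imaging scaled within each plate; lower means fewer cells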
HSV replic up primary fold: also measured in HSV replic up; calls as there; fold increase; compound at 10 µM; measured here: primary screen fold increase 10 uM; tested in PC3 cells;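 GFP signal in the first replicate; 1 = infected wells without compound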
An asterisk follows results filed as active; i = inactive; ? = inconclusive; nt = not tested or not shown; & = joins results of further samples.

SMILES	HSV replic up	HSV replic up primary fold	GALR2 agonist	PKD1 kinase inh	RGS16-Gao HTS	Insulin prom inh	Insulin prom inh cell count
O=C(NCc1cccnc1)c1ccc(NC(=O)c2ccco2)cc1	i	0.92	-1.9	-7	101	79*	56*
COc1ccc(/C=N/OCC(=O)NCc2cccs2)c(OC)c1	i	1.1	-1.3	0	101	nt	nt
O=C1CCCC/C1=C\Nc1ccc(S(=O)(=O)Nc2cnc3ccccc3n2)cc1	i	1.2	nt	nt	99	nt	nt
CCCC(=O)C1=C(O)C(C(=O)OC)C(C)(C)CC1=NC (configuration not stated)	i	0.99	-0.1	-1	111	19	104
S=C(Nc1ccccc1)N(Cc1ccccc1)Cc1ccncc1	i	1	nt	3	96	nt	nt
O=C(O)C1CCCCC1C(=O)Nc1nccs1 (configuration not stated)	i	0.9	-2.0	-6	102	nt	nt
CNc1nc(N)c([N+](=O)[O-])c(NCc2ccccc2)n1	i	0.89	-0.5	-5	122	nt	nt
CCOc1ccccc1-n1c(SCC(N)=O)nc2ccccc2c1=O	i	0.97	2.8	0	105	-3	71
CSc1nsc(SCc2cnc(C)nc2N)n1	i	1.1	-3.8	-7	98	-203	51
Cc1ccc2c(C)c(C(=O)N(Cc3cccs3)C3CCS(=O)(=O)C3)oc2c1 (configuration not stated)	i	0.97	-0.4	-1	101	16	111
O=C(NCCCN1CCOCC1)c1cc(-c2ccc(Br)cc2)on1	i	0.96	-3.2	0	171	nt	nt
Cc1cccc(C(=O)OCC(=O)Nc2ccc(N3CCCCC3)cc2)c1O	i	0.97	-1.0	2	99	-46	132
Nc1cnn(C2CCCO2)c(=O)n1 (configuration not stated)	i	0.72	-0.9	1	102	-11	142
CCOc1cc(NC(=S)NCCCN(C)C)c(OCC)cc1NC(=O)C1CC1	i	1	nt	-4	101	nt	nt
Cn1c(SCC(=O)N2CCN(c3ccccc3)CC2)nnc1-c1c[nH]c2ccccc12	i	0.7	-3.0	-4	85	nt	nt
COC(=O)Cc1ccc2oc(-c3cccnc3)nc2c1	i	0.86	nt	5	110	-100	74
COCCn1c(C)cc(C(=O)COC(=O)c2ccc3c(c2)NC(=O)CS3)c1C	i	1	-1.5	-4	75	33	95
COc1ccc(NC(=O)Nc2ccc3nonc3c2)cc1	i	0.97	nt	nt	106	nt	nt
Cn1c(SCc2ccccc2)nc2ccsc2c1=O	i	0.96	nt	0	103	nt	nt
O=c1ccc(=O)n2n1CC(O)C2	i	0.94	-4.0	-7	102	nt	nt

The final 6 entries of the part above are carried over, then new ones follow.
SMILES	HSV replic up	HSV replic up primary fold	GALR2 agonist	PKD1 kinase inh	RGS16-Gao HTS	Insulin prom inh	Insulin prom inh cell count
Cn1c(SCC(=O)N2CCN(c3ccccc3)CC2)nnc1-c1c[nH]c2ccccc12	i	0.7	-3.0	-4	85	nt	nt
COC(=O)Cc1ccc2oc(-c3cccnc3)nc2c1	i	0.86	nt	5	110	-100	74
COCCn1c(C)cc(C(=O)COC(=O)c2ccc3c(c2)NC(=O)CS3)c1C	i	1	-1.5	-4	75	33	95
COc1ccc(NC(=O)Nc2ccc3nonc3c2)cc1	i	0.97	nt	nt	106	nt	nt
Cn1c(SCc2ccccc2)nc2ccsc2c1=O	i	0.96	nt	0	103	nt	nt
O=c1ccc(=O)n2n1CC(O)C2	i	0.94	-4.0	-7	102	nt	nt
COc1cc(OC)c(C(=O)NCC2CCCO2)cc1OC (configuration not stated)	i	0.88	nt	-4	100	-20	140
CCOC(=O)c1ccc(N2C(=O)CC(NC3CCN(C(=O)c4cccc(Cl)c4)CC3)C2=O)cc1 (configuration not stated)	i	0.93	-2.5	1	94	-56	159
COc1ccccc1OCC(=O)OC/C(O)=C(\C#N)c1nc2ccccc2[nH]1	i	0.91	-0.7	-4	65	nt	nt
Oc1[nH]c2ccccc2c1N=Nc1nc2ccccc2s1	nt	nt	-2.5	-5	99	nt	nt
CCCn1c(-c2ccc(F)cc2)n[nH]c1=S	i	0.86	-1.5	-1	29	-28	101
CC(=O)/C(N=Nc1ccc(SC(F)F)cc1)=C(\C)O	i	1	nt	-1	99	nt	nt
CCOC(=O)c1sc(/N=C/N(C)C)c(C(=O)OCC)c1C	i	0.81	-0.4	-8	137	38	113
Cn1c(NC(=O)C2CCCC2)cc(=O)n(C)c1=O	i	0.95	-1.1	-3	104	nt	nt
O=C(CCN1C(=O)c2ccccc2C1=O)C1=NN[C@@H]2C(=O)N(c3cccc(Cl)c3)C(=O)[C@H]12	i	1	-1.2	-16	127	11	76
COc1ccc(CC(=O)Nc2ccc(-c3noc(-c4ccc(Cl)cc4)n3)cc2)cc1	i	0.57	-2.3	-10	90	-9	72
Cc1ccc(F)cc1NC(=O)N1c2ccccc2NC(=O)CC1C (configuration not stated)	?	nt	nt	nt	101	nt	nt
O=[N+]([O-])c1cc(Br)cc(/C=N/n2cnnc2)c1O	i	1.1	nt	-1	100	-75	108
Cc1ccc(NC(=S)NCCC2=CCCCC2)cc1	i	1.2	nt	1	105	-71	92
O=C(CCCN1C(=O)c2ccccc2C1=O)N1CCCCC1	i	1	-2.0	-9	103	-39	149
CC(C)(C)c1ccc(CN2N=C(/C=C/c3ccccc3)CCC2=O)cc1	i	0.84	nt	3	98	23	83
CC(NC(=O)c1cccs1)C(c1cccs1)N1CCN(c2ccccc2)CC1 (configuration not stated)	i	0.85	-1.0	-11	101	-67	80
Cc1cnc(NC(=O)c2cc3c(s2)CCCC3)s1	i	1.1	-0.6	4	104	11	93
C=C(C)Cn1c(-c2ccc(OC)cc2)nc2ccccc21	i	0.94	-0.7	8	97	50	111
O=C(Cc1ccc([N+](=O)[O-])cc1)NCc1ccc2c(c1)OCO2	i	1.1	-0.6	-16	102	47	100
O=C(CNC(=O)c1ccc(Cl)cc1Cl)OCc1nc2ccccc2s1	i	0.93	-0.7	4	100	26	112
Cn1cc(SCC(=O)O)c2ccccc21	i	0.97	-0.9	-6	103	83*	118*
C[C@@H](O)C1NC(=O)[C@H](CCCCN)NC(=O)c2cc([N+](=O)[O-])cc(F)c2NCCCC[C@@H](C(N)=O)NC1=O (some centres not stated)	i	0.91	-1.8	10	49	41	106
CCC(=O)n1nc(-c2cccnc2)nc1NCc1ccc(F)cc1	i	0.83	nt	0	101	-31	81
CC1(C)COCN1C(=O)c1ccc(Cl)c(Cl)c1	i	0.94	nt	-1	101	nt	nt
N#Cc1c(NC(=O)CSc2ncccn2)oc(-c2ccccc2)c1-c1ccccc1	i	0.94	-2.6	-8	nt	0	121
COc1ccc(C(=O)COc2ccc3ccc(=O)oc3c2)cc1	i	0.88	nt	nt	101	nt	nt
Cc1cc(C)c2c(c1)cc(C)c1nnc(SCC(=O)Nc3ccccc3N3CCOCC3)n12	i	0.98	0.1	-17	70	nt	nt
O=C(O)CC(Cn1[nH]nnc1=S)c1ccccc1 (configuration not stated)	i	1	7.2	-4	102	-217	73
CC(C)(O)C#Cc1ccc(C(=O)NC(CCCNC(N)=O)C(=O)O)s1 (configuration not stated)	i	0.99	nt	0	100	11	66
COc1ccc(OC)c(C(=O)CC2OC(=O)c3ccccc32)c1 (configuration not stated)	i	0.68	-2.5	-1	99	nt	nt
Cc1ccc(C(=O)Oc2ccccc2N2C(=O)C3CCCCC3C2=O)cc1 (configuration not stated)	nt	nt	-1.5	-11	100	nt	nt
COc1cccc(CNC(=O)CC2Sc3ccccc3NC2=O)c1 (configuration not stated)	i	0.94	nt	-7	123	-21	124
COc1ccc(S(=O)(=O)Nc2ccccc2OC)cc1NC(=O)c1cc2ccccc2oc1=O	i	0.86	-0.8	4	110	nt	nt
COc1cc(CSc2nnnn2-c2ccc(C)cc2)cc(OC)c1OC	i	0.86	-1.4	-13	100	nt	nt
O=C(O)/C(=C\c1ccco1)NC(=O)c1cccc2ccccc12	i	1	0.5	-3	141	49	56
CC1(C)Cc2c(sc3ncn4c(=S)[nH]nc4c23)CO1	i	0.92	nt	7	60	42	98
CCOC(=O)C1=C(c2ccccc2)Nc2ncnn2C1c1ccc(O)cc1 (configuration not stated)	i	0.9	nt	nt	108	nt	nt
CCCCn1c(=O)[nH]c(=O)c2c1nc(-c1ccc(-c3ccc(F)cc3)o1)n2C	i	0.97	nt	nt	102	nt	nt
Nc1c(C(=O)c2ccc(Cl)cc2)sc2nsc(SCCN3CCOCC3)c12	?	nt	nt	nt	94	nt	nt
CC(C)c1nc2oc3c(NCC4CCCO4)ncnc3c2c2c1COC(C)(C)C2 (configuration not stated)	nt	nt	0.4	2	108	nt	nt
Cn1cccc1Cc1nnc(SCC(=O)N2CCc3ccccc32)n1-c1ccc(F)cc1	?	nt	-1.7	-10	95	nt	nt
CCSc1nc2ccccc2n1C(=O)/C=C\c1ccc(OC)c(OC)c1	i	0.9	-0.1	6	91	nt	nt
c1ccc(-c2nc3ccccc3s2)nc1	i	0.99&1.1	-2.4	1	101&93	nt	nt
O=C(CCc1nnc(-c2ccc3c(c2)OCO3)o1)N(Cc1ccncc1)CC1CCCO1 (configuration not stated)	i	0.95	nt	9	70	25	131
O=C(Nc1ccncc1)C1CCC(CNS(=O)(=O)c2cccc3nsnc23)CC1 (configuration not stated)	i	0.94	nt	nt	104	nt	nt
Cc1ccc(NC(=O)c2c(C)nn(-c3ccccc3)c2Cl)c(C)c1	i	0.86	-2.0	3	94	-90	108
Cc1cc(C(F)(F)F)nn1CC(=O)NNC(=S)Nc1ccc(Cl)cc1	i	0.96	-2.7	0	99	15	88
CCC(=O)N1CCc2cc(S(=O)(=O)NC(Cc3ccccc3)C(=O)NC3CCCC3)ccc21 (configuration not stated)	i	1	-2.5	0	107	nt	nt
CCN(CC)c1ccc2cc(/C(N)=N/NC(=O)c3cccs3)c(=O)oc2c1	?	nt	nt	nt	108	nt	nt
O=C(O)c1ccc(S(=O)(=O)c2ccc(Sc3ccc(C(=O)O)c(C(=O)O)c3)cc2)cc1	i	1.6	nt	-5	99	nt	nt
CCN(CC)CCCn1c(=S)[nH]c2ccccc2c1=O	i	0.81	-1.3	-7	106	nt	nt
Clc1cccc(OCCn2cncn2)c1Cl	i	0.99	-1.8	-3	100	48	89
CCCCCn1c(C(Cc2ccccc2)NC(=O)COC)nc2ccccc21 (configuration not stated)	i	1	-3.2	7	113	nt	nt
COc1ccc(CSCC(=O)NCCC(C)C)cc1	i	1	nt	-7	97	nt	nt
CCCC(=O)Nc1nnc(-c2ccc3c(c2)OCCO3)o1	i	0.93	nt	4	105	44	106
COc1ccc(-c2nc(NC(=O)c3ccc(OCC(=O)N4CCOCC4)c(OC)c3)sc2C)cc1	i	1	0.1	1	91	25	39
CS(=O)(=O)N1CCN(c2ccc([N+](=O)[O-])c(SCc3ccco3)c2)CC1	i	0.9	nt	-9	103	nt	nt
OC[C@H]1O[C@@H](Oc2cc(O)cc(/C=C/c3ccc(O)cc3)c2)[C@H](O)[C@@H](O)[C@@H]1O	i	0.79	nt	nt	99	nt	nt
Cc1cc(C)c2nc(N3CCC(C(=O)N4CCCC4)CC3)sc2c1	i	0.83	-4.9	-9	103	nt	nt
CC1=C(C(=O)NCCCOC(C)C)C2(CCC(C)CC2)OC1=O (configuration not stated)	i	0.98	-0.8	-5	99	nt	nt

Part of the list above with just Insulin prom inh cell count and HSV replic up.
Molecule,Insulin prom inh cell count,HSV replic up
CS(=O)(=O)N1CCN(c2ccc([N+](=O)[O-])c(SCc3ccco3)c2)CC1,nt,i
OC[C@H]1O[C@@H](Oc2cc(O)cc(/C=C/c3ccc(O)cc3)c2)[C@H](O)[C@@H](O)[C@@H]1O,nt,i
Cc1cc(C)c2nc(N3CCC(C(=O)N4CCCC4)CC3)sc2c1,nt,i

The listing continues:
SMILES	HSV replic up	HSV replic up primary fold	GALR2 agonist	PKD1 kinase inh	RGS16-Gao HTS	Insulin prom inh	Insulin prom inh cell count
COc1cc(/C(C)=N/Nc2ccc(C(=O)O)cc2)cc(OC)c1OC	i	0.92	-0.3	-6	104	-107	78
Cn1c(CSCc2ccc(Cl)cc2)n[nH]c1=S	i	1	nt	-9	96	nt	nt
CCc1nnc(NC(=O)CSc2nnnn2-c2cccc(C(C)=O)c2)s1	i	1.1	nt	0	108	nt	nt
O=S(=O)(c1ccccc1)c1nc(-c2ccccc2)oc1N1CCCCC1	i	1	-2.2	3	53	-47	174
